2A firefly: lowers the firefly signal of an FMDV 2A StopGo reporter | HEK cells with a luciferase reporter of 2A StopGo recoding | Potency, µM (doses to about 57.5 µM), inactives show at the top dose signal change, negative = less light | actives 0.23% (n = 120,000) | AID 1745856; active = well fitted falling curve with a large enough effect; inconclusive = small, poorly fitted or top-dose-only effect; inactive = no such curve, though single readings can be large or run the other way; further: nearly all actives have a fitted effect of over 60% in size; overnight with compound
StopGo RLuc: FMDV 2A StopGo reporter, Renilla signal | HEK cells with a luciferase reporter of 2A StopGo recoding | actives 0.32% (n = 120,000) | Potency, µM (series often up to 57.5 µM), inactives show at the highest dose signal change, negative = less light; active means well fitted falling curve with a large enough effect; inconclusive means small, poorly fitted or top-dose-only effect; inactive means no such curve, though single readings can be large or run the other way; further: nearly all actives have a fitted effect of over 55% in size; overnight with compound
* = called active by the depositor; [ ] = remark or other dose. On the % scale 0 is the no-effect control and ±100 the full control effect; potency means the concentration at half of the fitted maximal effect.

Compound: Cc1ccc(-c2cnc3ccccc3n2)c(C)c1
- 2A firefly: 82.4%[activator]
- StopGo RLuc: 21.0%

Compound: CC(C)(C)n1nnnc1SCC(=O)N1N=C(c2cc3ccccc3o2)CC1c1ccco1 (stereo not given)
- 2A firefly: 160.4%[activator]
- StopGo RLuc: -1.7%

Compound: O=C(O)/C=C/c1cccc(I)c1
- 2A firefly: 14.9%
- StopGo RLuc: 11.4%

Compound: CCC(CC)C(=O)Nc1ccc(OCc2cc(=O)n3ccsc3n2)cc1
- 2A firefly: 1.4%
- StopGo RLuc: -4.9%

Compound: COc1ccccc1CCNC(=O)c1cccn1-c1nnc(N2CCCC2)s1
- 2A firefly: -12.1%
- StopGo RLuc: -4.0%

Compound: CC(=O)Nc1ccc(C2Nc3ccccc3C(=O)N2c2ccc(F)cc2)cc1 (stereo not given)
- 2A firefly: 153.5%[activator]
- StopGo RLuc: 7.5%

Compound: O=C(O)c1ccc2c(C(C(=O)O)N3CCN(c4ncccn4)CC3)cn(Cc3ccccc3)c2c1 (stereo not given)
- 2A firefly: 3.1%
- StopGo RLuc: -6.5%

Compound: COc1ccc(-n2ncc(C(=O)Nc3ccc4c(c3)OCO4)c2C2CCN(C(=O)OC(C)(C)C)CC2)cc1
- 2A firefly: 22.7%
- StopGo RLuc: -10.5%

Compound: COc1cc2[nH]c(=O)n(CCCC(=O)NCc3ccccc3Cl)c(=O)c2cc1OC
- 2A firefly: -7.1%
- StopGo RLuc: -12.7%

Compound: COc1ccc(OC(=O)c2cc3ccccc3oc2=O)cc1
- 2A firefly: 29.2%
- StopGo RLuc: 7.8%

Compound: CCn1c2c(c(=O)[nH]c1=O)C(c1ccc(C(=O)O)cc1)C1=C(N2)c2ccccc2C1=O (stereo not given)
- 2A firefly: -9.0%
- StopGo RLuc: 1.7%

Compound: CC1Oc2ccccc2C=C1/C=C/C(=O)c1ccc(O)cc1 (stereo not given)
- 2A firefly: 53.2%[activator]
- StopGo RLuc: 26.5%

Part of the list above in order of length of the SMILES, highest first:
Compound: COc1ccc(-n2ncc(C(=O)Nc3ccc4c(c3)OCO4)c2C2CCN(C(=O)OC(C)(C)C)CC2)cc1
- 2A firefly: 22.7%
- StopGo RLuc: -10.5%

Compound: CC(C)(C)n1nnnc1SCC(=O)N1N=C(c2cc3ccccc3o2)CC1c1ccco1 (stereo not given)
- 2A firefly: 160.4%[activator]
- StopGo RLuc: -1.7%

Compound: CC(=O)Nc1ccc(C2Nc3ccccc3C(=O)N2c2ccc(F)cc2)cc1 (stereo not given)
- 2A firefly: 153.5%[activator]
- StopGo RLuc: 7.5%

Compound: COc1ccccc1CCNC(=O)c1cccn1-c1nnc(N2CCCC2)s1
- 2A firefly: -12.1%
- StopGo RLuc: -4.0%

Compound: CC1Oc2ccccc2C=C1/C=C/C(=O)c1ccc(O)cc1 (stereo not given)
- 2A firefly: 53.2%[activator]
- StopGo RLuc: 26.5%

Compound: Cc1ccc(-c2cnc3ccccc3n2)c(C)c1
- 2A firefly: 82.4%[activator]
- StopGo RLuc: 21.0%

Only part of the results is shown. The share of hits here may be higher or lower than overall.
